# High-throughput results as filed in PubChem BioAssay.
# VDR inh – Inhibitors of the vitamin D receptor (VDR): qHTS; Potency, µM, for inactives: max response, negative = inhibition, usual class: inhibitors; 400,000 compounds, 0.93% hits; VDR-SRC2-3 peptide fluorescence polarization, 2 h; Vitamin D3 receptor (Homo sapiens), P11473; AID 504847, 2011; active = well fitted inhibition curve with a large enough effect; inconclusive = small, poorly fitted or top-dose-only effect, or another doubt; inactive = no such curve, though single readings can be large or run the other way; note: series mostly up to about 120 µM
# Target sequence (P11473 whole entry, looked up): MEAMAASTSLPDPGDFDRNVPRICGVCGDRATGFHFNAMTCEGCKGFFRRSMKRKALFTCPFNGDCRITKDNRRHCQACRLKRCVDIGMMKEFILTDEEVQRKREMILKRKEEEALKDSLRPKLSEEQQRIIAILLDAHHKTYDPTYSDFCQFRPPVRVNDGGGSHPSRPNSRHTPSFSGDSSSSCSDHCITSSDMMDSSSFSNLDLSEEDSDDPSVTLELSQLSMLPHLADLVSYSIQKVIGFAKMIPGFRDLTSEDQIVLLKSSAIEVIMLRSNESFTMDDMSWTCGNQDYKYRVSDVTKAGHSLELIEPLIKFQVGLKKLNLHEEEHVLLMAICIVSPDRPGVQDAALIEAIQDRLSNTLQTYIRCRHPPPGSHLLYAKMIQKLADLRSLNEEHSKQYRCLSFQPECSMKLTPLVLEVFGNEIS
#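 The screen uses fluorescence polarization to detect compounds that interfere with recruitment of the SRC2-3 coactivator peptide to VDR; plates are read after 2 h at room temperature.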
# * marks the source's active call; other numbers are inactive results; ? = inconclusive; & = joins results of further samples; [ ] = remark or other dose. % is set by controls: 0 for no effect and ±100 for the full control effect; potency is the fitted concentration of half-maximal effect. This is a subset; rates above refer to the full screens.
canonical_smiles	VDR inh
Cc1cc(C)c(NC(=O)Cn2c(=O)n(Cc3ccc4c(c3)OCO4)c(=O)c3ccc(C(=O)NC4CCCCC4)cc32)c(C)c1	-1.0%
CC(C)N(C(=S)NCc1ccccc1)c1ccccc1	-4.1%
COC(=O)Cc1ccc(NC(=S)NCc2ccco2)cc1	11.9%
Cc1ccccc1-n1c2nc(=O)[nH]c(=O)c-2cc2c(Cl)cccc21	-1.4%
O=C(O)CC1S/C(=N/N=C/c2ccc(-c3ccc(Cl)c([N+](=O)[O-])c3)o2)NC1=O (centres undefined)	-5.8%
Cc1ccc(C(C)C)c(OCC(=O)Nc2ccc(S(=O)(=O)Nc3onc(C)c3C)cc2)c1	-23.0%
c1ccc2c(Nc3ccncc3)nc(-c3ccc4c(c3)OCO4)nc2c1	3.4%
N#CC1=C(SCC(=O)NC2CCCCC2)NC(=O)CC1c1ccco1 (centres undefined)	-5.5%
COc1ccc(N2CCN(C(c3ccccc3)c3nnnn3Cc3ccccc3)CC2)cc1 (centres undefined)	0.1%
CC(=O)c1ccc(S(=O)(=O)NCCC(=O)N2CCN(c3ccccn3)CC2)cc1	-10.5%
O=C(COc1ccc(Cl)cc1Cl)NCC1(N2CCOCC2)CCCCC1	-3.2%
COC1c2ccccc2C(=O)N1CCc1ccc(Cl)cc1 (centres undefined)	-18.1%
COc1ccc(N(C(=O)c2cccnc2)S(=O)(=O)c2ccccc2)cc1	-3.4%
O=C(Cn1cnc2c(nnn2Cc2ccc(F)cc2)c1=O)NCc1ccco1	23.3%
Cc1ccc(-n2ncc3c(N4CCN(c5ccc(F)cc5)CC4)ncnc32)c(C)c1	22.1%

# Some values from the results shown:
# O=C(O)CC1S/C(=N/N=C/c2ccc(-c3ccc(Cl)c([N+](=O)[O-])c3)o2)NC1=O (centres undefined) @ VDR inh: -5.8%
# COC1c2ccccc2C(=O)N1CCc1ccc(Cl)cc1 (centres undefined) @ VDR inh: -18.1%
# Cc1ccc(-n2ncc3c(N4CCN(c5ccc(F)cc5)CC4)ncnc32)c(C)c1 @ VDR inh: 22.1%
# Cc1ccccc1-n1c2nc(=O)[nH]c(=O)c-2cc2c(Cl)cccc21 @ VDR inh: -1.4%
# CC(=O)c1ccc(S(=O)(=O)NCCC(=O)N2CCN(c3ccccn3)CC2)cc1 @ VDR inh: -10.5%

# Going on with the list:
canonical_smiles	VDR inh
CCN(CC)C(=O)Oc1ccc(NC(C)=O)cc1	4.6%
CC(=O)c1cc(C(C)=O)c(C)nc1C	12.3%
Cc1ccc(Nc2c([N+](=O)[O-])ccc3c2=NC2(CCCCC2)N=3)cc1	-5.0%
O=C1N=C(N2CCOCC2)S/C1=C\c1ccccc1OS(=O)(=O)c1ccccc1	-9.5%
C=C(C)c1cccc(C(C)(C)NC(=O)NCc2ccc(OC)cc2)c1	3.5%
Cc1ccccc1CCN(CC(=O)NCc1ccc(F)cc1)C(=O)c1csnn1	-0.9%
Cc1ccc(C)c(N2CCN(CCCNC(=O)c3cnn(-c4ccc(F)cc4)c3C3CCN(C(=O)OC(C)(C)C)CC3)CC2)c1	19.3%
COc1ccc(OC)c(Nc2nc(-c3c(C)nc4ncccn34)cs2)c1	0.2%
CC1C(=O)N2CCCc3cc(S(=O)(=O)N4CCN(c5ccccc5F)CC4)cc1c32 (centres undefined)	-1.8%
O=c1cc(N2CCCCC2)[nH]c(=O)n1C1CCCCC1	-13.6%
Cc1cc(C)cc(-n2c(C)cc(C(=O)CSc3nnnn3C)c2C)c1	17.0%
CCOc1ccc(C(=O)Nc2nnc(S(=O)(=O)Nc3ccccc3C)s2)cc1	-16.0%
CC(C)(C)OC(=O)N1CCC(c2cc(=O)n3[nH]c(-c4ccc(Cl)cc4)cc3n2)CC1	-3.0%
COCCn1c(SCC(=O)N2CCc3ccccc3C2)nc2cc(Cl)ccc2c1=O	1.6%
CN1OC[C@@H]2CN(Cc3ccccc3)[C@H](c3cccc(-c4ccc(C#N)cc4)c3)C[C@@H]21	-20.2%

# Arranged by heavy-atom count (high to low): three of the compounds above
canonical_smiles	VDR inh
CC(C)(C)OC(=O)N1CCC(c2cc(=O)n3[nH]c(-c4ccc(Cl)cc4)cc3n2)CC1	-3.0%
CCN(CC)C(=O)Oc1ccc(NC(C)=O)cc1	4.6%
CC(=O)c1cc(C(C)=O)c(C)nc1C	12.3%

# Going on with the list.
canonical_smiles	VDR inh
CN=C(NC#N)SCC(=O)c1ccc(Cl)cc1Cl	3.5%
C#CCNC(=O)C1=C[C@@H](c2ccc(Br)cc2)C[C@@H](OCc2ccc(CO)cc2)O1	-4.1%
Oc1c(C(c2ccccc2)N2CCN(Cc3ccccc3)CC2)sc2ncnn12 (centres undefined)	-3.9%
CC1CCN(C(=O)C(=O)Nc2sc3c(c2C(=O)O)CC(C)(C)OC3)CC1	-1.4%
CCOc1cc(C(=O)Nc2ncn[nH]2)cc(OCC)c1OCC	-1.1%
CCOc1ccccc1NC(=O)CN(c1ccc(OC)cc1)S(=O)(=O)c1c(C)[nH]c(=O)[nH]c1=O	3.4%
COc1ccc(-c2c(=O)n(OCc3ccccc3[N+](=O)[O-])c3ccccc3[n+]2[O-])c(OC)c1	17.7%
COc1cc(/C=C(\C#N)c2nc3ccccc3s2)ccc1OCC(=O)Nc1ccccc1	4.7%
O=C(C1CC1)N1CCN=C1SCc1cccc(F)c1	-13.9%
COc1ccc2oc(C(=O)OC(C)C(=O)N3CCC(C)CC3)c(C)c2c1 (centres undefined)	2.0%
Cc1cc(=O)[nH]c2nnc(SCC(=O)Nc3ccc(OC(F)(F)F)cc3)n12	6.9%
CCN(CC)CCOC(=O)c1ccc(NC(=O)CSc2cc(=O)n(CC)c3ccccc23)cc1	3.3%
CCOc1ncccc1C(=O)Nc1nnc(C(CC)CC)s1	7.9%
CN1CCN(C(=O)/C(=C/c2cn(S(=O)(=O)N(C)C)c3ccccc23)NC(=O)c2ccccc2)CC1	-1.7%
COc1ccc(-c2cc(C(=O)Oc3cccc(C)c3C)c3ccccc3n2)cc1	-9.4%
COc1ccc(Cl)cc1NC(=S)N(Cc1ccccc1C)CC1CCC(C(=O)O)CC1 (centres undefined)	5.5%
Cc1nc(N2CCCCC2)c2c(C)c(C(=O)Nc3ccc4c(c3)OCCO4)sc2n1	-37.7%
COc1ccccc1CN1CC2(CCN(S(=O)(=O)c3ccccc3)CC2)C1	-11.1%
N#Cc1ccccc1OC[C@H](O)CNCCNC(=O)Nc1ccccc1	-1.1%
CCCCn1c(=O)nc2n(-c3ccc(Br)cc3)c3ccccc3cc-2c1=O	10.7%
Cc1ccccc1C(=O)NC(=S)N(CCO)Cc1ccccc1	-13.4%
Cc1cc(C)n(-c2nnc(C)n2NC(=O)c2cccc(Cl)c2)n1	-17.6%
COc1ccc(CNC(=O)C2Cc3cc(S(=O)(=O)N4CCCC4)ccc3N2C(C)=O)c(OC)c1 (centres undefined)	-3.4%
COc1ccc(S(=O)(=O)N2CCN(Cc3ccccc3)CC2)cc1OC	6.8%
Cc1cc(C)n(-c2nc(Nc3ccccc3C(F)(F)F)nc(-n3nc(C)cc3C)n2)n1	1.9%
CCOC(=O)C1=C(N)Oc2c(c(=O)[nH]c3ccccc23)C1c1ccccc1 (centres undefined)	-0.5%
CCN(CC)C(=O)C1=C(C)Nc2nc3ccccc3n2C1c1cccc(Cl)c1 (centres undefined)	-24.2%
Cc1c(OCC(=O)N[C@H](C(=O)O)c2ccccc2)ccc2c3c(c(=O)oc12)CCCC3	-17.9%
CCN(CC)CCCN1C(=O)C(=O)/C(=C(/O)c2ccc3c(c2)OCCO3)C1c1ccco1 (centres undefined)	1.2%
Cn1c(SCC#N)nnc1-c1cccnc1	0.1%
O=C(O)C1CC(c2ccccc2)=NO1 (centres undefined)	-10.6%
CN(C)Cc1ccccc1Sc1ccc2c(c1)CCCC2	-4.2%
CCC(C)[C@H](NC(=O)NCC1CCCO1)C(=O)OC (some centres undefined)	-2.8%
CC(=O)N(c1ccccc1C)S(=O)(=O)c1ccc(Cl)cc1	5.3%
O=C(NCCCN1CCN(c2ccc(F)cc2)CC1)c1sc2ncccc2c1-n1cccc1	10.6%
Cc1ccc(N2C(=O)CC(Sc3ncn[nH]3)C2=O)cc1 (centres undefined)	6.9%
CCCc1ccc(OCc2ccc(C(=O)N3CCN(c4ccccn4)CC3)o2)c(OC)c1	-4.2%
CN(C(=O)CN1C(=O)NC2(CCCc3ccccc32)C1=O)C1CCCCC1 (centres undefined)	6.2%
CC(=O)N[C@@H](CC(C)C)C(=O)O	1.6%
Cc1cc(SCC(=O)O)nc2ccccc12	2.2%&0.1%
CC(C)CN(C(=O)CCC(=O)OCC(=O)N(C)c1ccccc1)c1c(N)n(CC(C)C)c(=O)[nH]c1=O	-18.1%
CN1CC(=O)N(CC(=O)NC2CCCCC2)C1=O	0.4%
Cc1ccc(C(=O)N/C(=C/c2ccco2)C(=O)Nc2cccc(C)c2)cc1	6.9%
CN(C)CCN(C(=O)CCS(=O)(=O)c1ccccc1)c1nc2cc3c(cc2s1)OCO3	1.2%
COc1cccc(/C=C2\SC(=O)N(CC(=O)NC3CCS(=O)(=O)C3)C2=O)c1 (centres undefined)	-9.2%
COc1ccc(N2CCSC2C(=O)NN)cc1 (centres undefined)	-2.4%
C=CCN1C(=O)/C(=C2/Sc3ccc(OC)cc3N2C)SC1=NCc1ccccc1	-7.0%
CCC1(c2ccc(F)cc2)NC(=O)N(CC(=O)N2c3ccccc3NC(=O)C2(C)C)C1=O (centres undefined)	-16.0%
O=C(c1ccc(-n2cncn2)c([N+](=O)[O-])c1)N1CCN(S(=O)(=O)c2ccccc2Br)CC1	-2.9%
O=C(Nc1ccc(N2CCOCC2)c(Cl)c1)c1ccc2c(c1)OCCO2	-9.4%
CC1CCN(C(=O)CSc2nnc(CSc3ncccn3)n2C)CC1	-5.8%
CCC(COC(=O)Nc1ccccc1)NC(=O)OC(C)C (centres undefined)	10.4%
O=C(CC12CC3CC(CC(C3)C1)C2)NC(=S)NCc1ccccc1	-1.0%
CC(C)S(=O)(=O)c1csc(C(=O)Nc2ccc(F)cc2)c1N	8.6%
Cc1ccc(NC(=O)CSc2n[nH]c(-c3ccncc3)n2)cc1C	3.7%
CSc1ccccc1-c1nnc(-c2ccccc2)o1	1.9%
CCC(=O)N1CCCc2cc(S(=O)(=O)N3CCC(C(=O)Nc4ccccc4CC)CC3)ccc21	-5.1%
O=S(=O)(NC1CCCCC1)c1ccc(Cl)nc1	-8.5%
O=C(Nc1cccc(C(=O)O)c1)/C(=C/c1cccc([N+](=O)[O-])c1)NC(=O)c1cccc(Br)c1	-14.2%
Cc1c(O)c2ccccc2n(-c2ccccc2)c1=O	-4.6%

# Carrying on.
canonical_smiles	VDR inh
Cc1oc2c(C)c3oc(=O)c(CC(=O)N4CCCCC4)c(C)c3cc2c1C	-2.7%
O=C(NCCN1C(=O)S/C(=C\c2ccc(OC(F)F)cc2)C1=O)[C@@H]1CCCN1C(=O)c1cccs1	-19.1%
C=CCn1c(CNC(=O)c2ccccc2C)nnc1SCC(=O)NC1CCCC1	-16.2%
Cc1cccc(C2c3[nH]c4ccccc4c3CCN2C(=O)c2ccc(=O)[nH]c2)n1 (centres undefined)	-8.4%
CC(=O)Nc1nc2ccccc2n1CCN1CCOCC1	2.3%
Cn1c(CCNC(=O)c2ccccc2Cl)n[nH]c1=S	9.9%
COc1cccc(C(=O)Nc2nnc(-c3ccccc3)s2)c1	32.3%[activator]
COc1ccc(NS(=O)(=O)c2cccc(Cl)c2)cc1S(=O)(=O)N1CCCCC1	-14.6%
CC(OC(=O)c1cnccn1)C(=O)Nc1nc(-c2cccc([N+](=O)[O-])c2)cs1 (centres undefined)	3.6%
COc1ccc(C(=O)Nc2cc(Cl)ccc2C(=O)O)cc1	10.4%
CN(CC(=O)Nc1cccc(F)c1)C(=O)c1ccc2c(c1)CC(c1ccccc1)OC2=O (centres undefined)	-5.8%
Cn1cnc(S(=O)(=O)N2CCN(c3ccccc3)CC2)c1	9.7%
CCc1cc(=O)oc2cc(C)cc(OC(C)C(=O)NCC(O)c3ccccc3)c12 (centres undefined)	21.8%
COc1ccc(/C=C2/C(=O)ON=C2C)cc1Cl	?
O=c1cc(Cc2ccc([N+](=O)[O-])cc2)[nH]c(=O)[nH]1	-2.0%
Cc1cc(OC(C)C(=O)N(Cc2cccs2)C2CCS(=O)(=O)C2)ccc1Cl (centres undefined)	-5.2%
CC1C(=O)N(Cc2ccccc2)c2ccccc2N1C(=O)c1ccccc1 (centres undefined)	-14.7%
O=C(CCCc1nc(-c2ccc(Cl)cc2)no1)Nc1cccnc1	5.9%
CC(=O)c1csc(CS(=O)(=O)c2ccccn2)n1	-18.6%
CN1C(=O)/C(=C/c2ccc(OCc3cccc(F)c3)cc2)NC1=S	-19.7%
COc1cccc(CNC(=O)C2CCN(c3ncnc4c3nc3n4CCCCC3)CC2)c1	5.5%&5.6%
CCS(=O)(=O)N1CCN(S(=O)(=O)c2ccccc2)CC1	1.9%
O=c1[nH]c(C2CCCN(S(=O)(=O)c3ccccc3)C2)nc2c1nnn2Cc1cccc(Cl)c1 (centres undefined)	-9.3%
Cc1nn(CCCC(=O)NCc2ccc(F)cc2)c(=O)c2nccn12	-6.7%
CC(=O)C1C(c2ccc(F)c(F)c2)NC(=O)NC1(O)C(F)(F)F (centres undefined)	-5.5%
COc1cccc(-c2cn(-c3cccc(C(F)(F)F)c3)c(=S)[nH]2)c1	14.5%
O=C(Cn1cc2c(n1)CCCC2)NCCCN1CCN(c2ccccc2F)CC1	-13.8%
CC(C)c1ccc(NC(=O)C2CCCN(S(=O)(=O)c3ccc4[nH]c(=O)ccc4c3)C2)cc1 (centres undefined)	5.7%
COC(=O)C1=C(C(=O)OC)[C@@H]2Nc3ccccc3[C@@]23C[C@@H](C(=O)OC)N(C(=O)COCc2ccccc2)C3=N1	-7.7%
Cc1ccc(-n2c(SCC(=O)OC(C)C)nnc2-c2ccccn2)cc1	-5.5%
